Screens deposited in PubChem BioAssay by Johns Hopkins Ion Channel Center.
KCNQ2 inh = KCNQ2 channel blockers in CHO-K1 cells – cell-based, FluxOR thallium flux, B-score, primary screen (AID 2156); O88943; 20 min; active compounds read low; only compounds with negative scores are shown here; some inactives read as strong as hits; B-score at 10 µM; hit rate 1.1% among 310,000;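 active means fluorescence ratio B-score at most minus 3 library SDs, with starting brightness B-score within 2 library SDs, cut at about -5.5 in these data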
Target sequence (O88943 whole entry, looked up): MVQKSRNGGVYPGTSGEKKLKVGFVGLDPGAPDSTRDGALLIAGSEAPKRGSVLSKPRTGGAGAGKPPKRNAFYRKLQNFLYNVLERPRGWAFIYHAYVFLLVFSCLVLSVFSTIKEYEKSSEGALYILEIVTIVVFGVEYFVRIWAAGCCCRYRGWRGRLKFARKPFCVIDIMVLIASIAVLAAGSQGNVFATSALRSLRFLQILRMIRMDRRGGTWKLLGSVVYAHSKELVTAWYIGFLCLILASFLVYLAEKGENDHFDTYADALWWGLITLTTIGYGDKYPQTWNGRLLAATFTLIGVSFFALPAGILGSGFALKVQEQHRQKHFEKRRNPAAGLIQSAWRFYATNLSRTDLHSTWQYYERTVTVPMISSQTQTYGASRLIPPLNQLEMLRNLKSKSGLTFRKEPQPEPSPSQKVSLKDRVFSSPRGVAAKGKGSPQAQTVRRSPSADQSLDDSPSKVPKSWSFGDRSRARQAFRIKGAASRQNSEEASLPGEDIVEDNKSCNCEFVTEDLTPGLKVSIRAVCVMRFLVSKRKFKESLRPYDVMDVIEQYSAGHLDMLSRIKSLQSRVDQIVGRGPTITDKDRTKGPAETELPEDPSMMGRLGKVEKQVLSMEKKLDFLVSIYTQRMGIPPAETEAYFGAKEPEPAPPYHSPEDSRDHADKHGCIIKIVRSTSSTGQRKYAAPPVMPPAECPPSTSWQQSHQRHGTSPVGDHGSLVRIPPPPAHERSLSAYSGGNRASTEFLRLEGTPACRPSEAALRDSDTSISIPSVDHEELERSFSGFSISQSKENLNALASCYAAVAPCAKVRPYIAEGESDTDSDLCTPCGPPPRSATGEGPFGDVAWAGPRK
KCNQ2 inh baseline = further read-out of KCNQ2 inh, marked with its call; B-score; measured here: initial fluorescence intensity artifact check;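 brightness before thallium and not channel activity; 0 = typical well and far values either way flag optical interference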
The depositor's hits bear a star; i = inactive.

SMILES	KCNQ2 inh	KCNQ2 inh baseline
CCCOc1ccc(N2C(=O)CC(N(CCc3ccc(OC)c(OC)c3)C(=O)c3ccccc3)C2=O)cc1 (configuration not stated)	i	-0.11
CCN(CC)S(=O)(=O)N1CCC(C(=O)NC2CCCC2)CC1	i	0.72
Cc1onc(-c2ccccc2)c1C(=O)N1CCCc2ccccc21	i	-0.28
CN1CCN(NC(=O)c2cccc3ccccc23)CC1	i	-0.5
NS(=O)(=O)c1ccc(NC(=O)c2cccc3ccccc23)cc1	i	0.64
CC(=O)c1c(C)[nH]c(C(=O)OCC(=O)Nc2cc(S(=O)(=O)N3CCCCC3)ccc2C)c1C	i	-2.35
COc1ccc(NC(=O)c2sc(-c3ccccc3)nc2C)c(OC)c1	i	0.79
O=C(NCc1ccccn1)c1cc(-c2ccc(Cl)cc2)oc1C(F)(F)F	i	-2.02
O=C(Nc1ccccc1F)Nc1ccc([N+](=O)[O-])cc1Cl	i	-0.51
COc1ccc(CNC(=O)Nc2ccc(OC)cc2)cc1	i	-0.26
O=C(CCNC(=O)C1CCN(S(=O)(=O)c2ccccc2)CC1)NCc1ccc(Cl)c(Cl)c1	i	-0.11
COCCNC(C(=O)Nc1ccc(C)cc1[N+](=O)[O-])c1ccccc1 (configuration not stated)	i	-0.18
CC(C)CCN1CCN(Cc2cccc3nonc23)CC1CCO (configuration not stated)	i	0.59
CN(CC(=O)Nc1ccccc1[N+](=O)[O-])Cc1ccc(Br)cc1	i	0.02
O=[N+]([O-])c1ccc(C2CNC(c3ccccc3)O2)cc1 (configuration not stated)	i	0.64
O=C(Cc1cccc2ccccc12)N/N=C/c1ccc(Sc2cccc3cccnc23)o1	i	-0.25
COc1ccc(Cc2nc(-c3ccc(-n4cccc4)cc3)no2)cc1	i	-0.66
CC(=O)OCc1ccccc1Sc1ccccc1C(=O)NCc1ccccc1	i	1.21
Cc1cc(=O)cc(C)n1-c1ccc(O)cc1	i	-1.96
O=C(NCc1ccccc1)/C(=C/c1ccc(OC(F)F)cc1)c1ccccc1	i	1.82
O=c1[nH]c(-c2ccccn2)nc2sc(-c3ccccc3)cc12	i	1.29
Cc1nc(=O)c(-c2ccccc2)c(C)n1CC1CCCO1 (configuration not stated)	i	0.34
COc1ccccc1CNC(=O)C(=O)NCC1OCCCN1S(=O)(=O)c1cccs1 (configuration not stated)	i	-1.83
CC(=O)N1CCC2(CC1)C(C#N)=C(N)Oc1c2sc2nc(C)cc(C)c12	i	0.01
O=C(c1ccco1)N1CCN(S(=O)(=O)N2CCOCC2)CC1	i	2
COC(=O)CNC(=O)COC(=O)C(Cc1ccccc1)NC(=O)c1ccco1 (configuration not stated)	i	1.01
CCOC(=O)CC(=O)CSc1nc2ccccc2c(=O)n1-c1ccc(C(=O)NCCOC)cc1	i	0.6
N#CC(c1ccccn1)(c1ncc(C(F)(F)F)cc1Cl)N1CCOCC1 (configuration not stated)	i	0.27
Cc1[nH]n(-c2nc(-c3ccccc3)cc(=O)[nH]2)c(=O)c1CCO	i	-0.05
O=C1/C(=C/c2cccnc2)SC(=S)N1c1ccccc1	i	2.03

The closing 2 entries of the part before lead into the next:
SMILES	KCNQ2 inh	KCNQ2 inh baseline
Cc1[nH]n(-c2nc(-c3ccccc3)cc(=O)[nH]2)c(=O)c1CCO	i	-0.05
O=C1/C(=C/c2cccnc2)SC(=S)N1c1ccccc1	i	2.03
CCCSc1cc(N2CCOCC2)nc(-c2ccccc2Cl)n1	i	-1.07
CCCCn1c(N)c(N(CCOC)C(=O)c2cc(-c3ccncc3)nc3ccccc23)c(=O)[nH]c1=O	i	-0.95
N=c1c(C(=O)NC2CCCCC2)cc2c(=O)n3ccccc3nc2n1Cc1ccccc1	i	1.23
CCC(C)[C@H](NC(=O)NCc1cccs1)C(=O)O (some centres not stated)	i	0.1
CCOC(=O)c1c(C)[nH]c(C(=O)OCC(=O)Nc2cc(C)nn2-c2ccccc2)c1C	i	0.18
Cc1cc(S(=O)(=O)N(Cc2ccc(F)cc2)CC2CCCO2)ccc1-n1cnnn1 (configuration not stated)	i	-0.92
O=C(N=Nc1c(O)[nH]c2ccc(Br)cc12)c1ccccc1-n1cccc1	i	0.83
O=C(NCCc1ccccc1)C(c1cccs1)N(C(=O)CCl)c1ccc(Cl)cc1 (configuration not stated)	i	0.76
O=C(Nc1cccc(F)c1)Nc1c[nH]c(=O)[nH]c1=O	i	-2.29
COc1ccc(CN2CCNC(=O)C2CC(=O)NCCSc2nccn2C)c(OC)c1 (configuration not stated)	i	-0.3

Arranged by length of the SMILES (highest first): six of the compounds above
SMILES	KCNQ2 inh	KCNQ2 inh baseline
CCOC(=O)c1c(C)[nH]c(C(=O)OCC(=O)Nc2cc(C)nn2-c2ccccc2)c1C	i	0.18
N=c1c(C(=O)NC2CCCCC2)cc2c(=O)n3ccccc3nc2n1Cc1ccccc1	i	1.23
O=C(NCCc1ccccc1)C(c1cccs1)N(C(=O)CCl)c1ccc(Cl)cc1 (configuration not stated)	i	0.76
O=C(Nc1ccccc1F)Nc1ccc([N+](=O)[O-])cc1Cl	i	-0.51
CCCSc1cc(N2CCOCC2)nc(-c2ccccc2Cl)n1	i	-1.07
CCC(C)[C@H](NC(=O)NCc1cccs1)C(=O)O (some centres not stated)	i	0.1

(listing goes on)
SMILES	KCNQ2 inh	KCNQ2 inh baseline
CN(C)CCN(Cc1cc2cc3c(cc2[nH]c1=O)OCCO3)C(=S)NCC1CCCO1 (configuration not stated)	i	0.01
CCCOc1ccc(Oc2nc(-c3ccncc3)nc3ccccc23)cc1	i	-1.18
CO/C([O-])=N/c1c[n+](-c2ccc(C)cc2)no1	i	0.03
CCCC(=O)N1CC(=O)Nc2ccc(C)cc2C1c1ccc(F)cc1 (configuration not stated)	i	-0.01
O=c1c2[nH]c3ccccc3c2ncn1CCC1=CCCCC1	i	0.01
CCC(c1nnnn1Cc1ccco1)N(CCc1ccccc1)Cc1cc2ccc(OC)cc2[nH]c1=O (configuration not stated)	i	-0.04
COC(=O)CSc1nnc(CSc2nc(C)cc(C)n2)n1Cc1ccco1	i	-1.68
COc1ccc(CCNc2nc3ccccc3n3nnnc23)cc1OC	i	1.01
Cc1[nH]c(C)c(S(=O)(=O)Nc2cccc(Cl)c2C)c1C(=O)N1CCCCC1	i	-0.53
COc1cccc(/C=c2/s/c(=C(\C#N)C(=O)N3CCOCC3)n(-c3ccccc3)c2=O)c1	i	-3.35

Some values from the list.
Under KCNQ2 inh baseline, COc1cccc(/C=c2/s/c(=C(\C#N)C(=O)N3CCOCC3)n(-c3ccccc3)c2=O)c1 reads -3.35
Under KCNQ2 inh baseline, O=c1c2[nH]c3ccccc3c2ncn1CCC1=CCCCC1 reads 0.01
Under KCNQ2 inh baseline, COC(=O)CSc1nnc(CSc2nc(C)cc(C)n2)n1Cc1ccco1 reads -1.68

(list continues)
SMILES	KCNQ2 inh	KCNQ2 inh baseline
COc1cc(C(=O)NCC(=O)N/N=C(C)\C=C\c2ccccc2)cc(OC)c1OC	i	-1
O=C(/C=C/c1ccccc1)N1CCN(CC(O)COc2ccccc2)CC1 (configuration not stated)	i	-0.26
c1ccc(-n2ncc3c2ncn2c(C4CCCCC4)nnc32)cc1	i	-0.5
CN1CCN(S(=O)(=O)c2ccc(Oc3ccc(F)c(Cl)c3)nc2)CC1	i	0.85
CC1(C)CC(=O)C(C=NCCCN2CCOCC2)=C(O)C1	i	0.94
O=C1Nc2ccccc2C(O)(C(=O)NCc2ccc3c(c2)OCO3)N1c1ccccc1 (configuration not stated)	i	-0.2
CCCCN(CCCC)C(=O)C1(P(=O)(c2ccccc2)c2ccccc2)CCC1	-6.23*	0.06*
O=C(CCC(=O)c1ccccc1)NC1CCCN(Cc2ccccc2F)C1 (configuration not stated)	i	1.36
Cc1ccc(C(=O)NCCc2nnc(SCC(=O)Nc3nc(-c4ccccc4)cs3)n2C)cc1	i	0.22
Cc1cnc(NC(=O)COc2ccccc2)s1	i	1.97
Cc1ccc2nc(C(C)O)[nH]c2c1 (configuration not stated)	i	1.8
O=C(C[n+]1cc(-c2ccc(F)cc2)n2c1CCC2)c1cccs1	i	1.03
CCCC(C)C(=O)OCC(=O)NCc1ccc(OC)c(OC)c1 (configuration not stated)	i	0.26
O=C(c1ccco1)N1CCN(CCCCN2C(=O)c3ccccc3C2=O)CC1	i	1.02
COc1cccc(CN(C(=O)c2cc3ccccc3oc2=O)C2CCS(=O)(=O)C2)c1 (configuration not stated)	i	-0.46
Cc1ccc(C)c(NC(=S)NCC(c2ccccc2)N(C)C)c1 (configuration not stated)	i	0.76
CCOC(=O)Cc1csc(Nc2ccc(Cl)cc2)n1	i	-0.01
Cc1ccc(C)c(C(=O)CSc2n[nH]c(C(C)C)n2)c1	i	1.26
CN=c1scc(-c2ccccc2Br)n1/N=C/c1ccc[nH]1	i	1
Cc1cc2nc(C3CCCN(C(=O)NCc4ccccc4)C3)[nH]c2cc1C (configuration not stated)	i	-0.1
C#CCNC(=O)C1=C[C@H](C2CCCCC2)C[C@H](OCc2ccc(CO)cc2)O1	i	1.3
Cc1cc(C)c(NC(=O)c2cn3c4c(c(N5CCN(C)CC5)c(F)cc4c2=O)OCC3C)c(C)c1 (configuration not stated)	i	0.02
CCn1c(CC(=O)Nc2ccc(C)cc2)nnc1SCC(=O)N1CCN(c2ccccc2)CC1	i	0.38
CCOc1ccc(NC(=O)COc2ccc(C(=O)NCc3cccnc3)cc2OC)cc1	i	1.15
COc1ccc(CCNC(=O)CCN2C(=O)[C@@H]3Cc4ccccc4CN3C2=O)cc1OC	i	0.11
COc1ccc(S(=O)(=O)CCC(=O)N2CCN(c3cccc(Cl)c3)CC2)cc1	i	0.16
Cc1cccc(NCc2ccc([N+](=O)[O-])s2)c1	i	0.38
CC(NC(=O)C(=O)NCC1CCCO1)c1ccccc1 (configuration not stated)	i	-0.05
Cn1cccc1/C=N/NC(=O)c1cccc(OC(F)(F)C(F)F)c1	i	0.07
Cn1c(=O)n(C)c2cc(NS(C)(=O)=O)ccc21	i	-0.03
Cc1cc(Cl)cc(Br)c1OCCCN1C(=O)NC(C)(C)C1=O	i	-0.09
CC(NCc1ccccc1Cl)C(=O)Nc1ccc(S(=O)(=O)N2CCCC2)cc1 (configuration not stated)	i	1.6
Cc1ccc(OCCNC(=O)c2cc(=O)[nH]c3ccccc23)cc1	i	-1.58
CN1C2C=C3C(C#N)=C(N)C(C#N)(C#N)[C@@H](c4cccc(F)c4)[C@@H]3C1CC2 (some centres not stated)	i	-0.01
CCOc1ccc(C(c2c(O)nc(SC)[nH]c2=O)c2c(O)nc(SC)[nH]c2=O)cc1	i	0.8
COc1ccc(N(C)C(=O)Cc2c(C(=O)O)n(C)c3ccccc23)cc1	i	-1.47
O=c1[nH]c(Cn2nnc(-c3ccccc3)n2)nc2scc(-c3ccccc3)c12	i	0.15
Cc1cc(C)nc(NS(=O)(=O)c2ccc(NC(=S)NC(=O)C(C)C)cc2)n1	i	0.13
Cc1ccc(S(=O)(=O)c2nnn3c2nc(N2CCN(c4ccccn4)CC2)c2ccccc23)cc1	i	-0.4
O=C1/C(=C/c2ccc(F)cc2)CCC1C1CCCC1 (configuration not stated)	i	-1.26
CCOc1cc(NS(C)(=O)=O)c(OCC)cc1NC(=O)c1cccs1	i	0.01
O=C(CSc1nc2ccccc2c(=O)n1CC1CCCO1)NCc1ccc2c(c1)OCO2 (configuration not stated)	i	0.56
O=C(NCCCn1ccnc1)/C(=C\c1cccs1)NC(=O)c1ccccc1	i	1.45
CCOc1ccc(CNC2CCCc3ccccc32)cc1 (configuration not stated)	i	-1.86
COc1ccc(S(=O)(=O)NCC(=O)N(Cc2ccco2)C(C(=O)NC(C)(C)C)C(C)C)cc1 (configuration not stated)	i	-0.25
O=C(Cn1ccc([N+](=O)[O-])n1)NCc1ccco1	i	0.58
COc1ccc(C2CC(O)(c3ccccc3)Oc3c(C)ccc(C)c32)cc1 (configuration not stated)	i	-1.62
CCOC(=O)Cc1nnc2c(Nc3ccc(C)cc3)nc3nonc3n12	i	-1.67
COc1ccc(NC(=O)CSc2nccn2Cc2ccco2)cc1OC	i	0.04
CCOC(=O)C1CCN(C(=O)Cc2ccc(-c3ccccc3)cc2)CC1	i	-0.03

Later entries.
SMILES	KCNQ2 inh	KCNQ2 inh baseline
CCOC(=O)c1cn(Cc2ccc(Cl)cc2Cl)c2cc(C)nn2c1=O	i	1.49
Cc1ccc[n+](CC(=O)c2cc3ccccc3oc2=O)c1	i	0.8
S=C(Nc1ccc(Br)cc1)N1CCn2cccc2C1c1cccnc1 (configuration not stated)	i	-1.4
O=C(Nc1ccc(F)c([N+](=O)[O-])c1)C(=O)c1c(O)[nH]c2ccccc12	i	-1.81
CCOc1ccc2nc(N(CCN(C)C)C(=O)c3ccc4ccccc4c3)sc2c1	i	2.21
Nc1nc(NCC2CCCO2)nc(Nc2ccccc2F)c1[N+](=O)[O-] (configuration not stated)	i	1.08
CC1CCc2nc(NC(=O)CN3CCN(c4ccccc4)CC3)sc2C1 (configuration not stated)	i	0.05
Cc1cc(C)c2c(N)c(C(=O)N3CCc4ccccc4C3)sc2n1	-7.69*	2.72*
c1ccc2oc(NC3=NCN(C4CCCCC4)CN3)nc2c1	i	0.94
CCc1ccccc1NC(=O)CCS(=O)(=O)c1ccc(Br)cc1	i	0.44
O=c1c2ccccc2nnn1Cc1ccccc1Cl	i	-0.66
CCCn1ncc(C(=O)NC2CCCN(Cc3ccc(Cl)cc3)C2)c1C (configuration not stated)	i	0.27
CCn1c(-c2ccccc2)csc1=Nc1ccc(S(=O)(=O)O)cc1	i	-0.02
CCN(CC)S(=O)(=O)c1ccc(Cl)c(NC(=O)c2cc(Cl)ccc2Cl)c1	i	1.22
CCOc1ccc(NC(=O)CNC(=O)Cc2ccccc2)cc1	i	-1.12
Cc1[nH]c2ccccc2c1C(=O)COC(=O)c1cccc(S(=O)(=O)N2CCCCC2)c1	i	-0.02
COc1ccc(CCNC(=O)C2CCN(Cc3nc(-c4ccccc4C)oc3C)CC2)cc1OC	i	0.99
CCC(c1nnc(SCc2nc3ccccc3s2)n1Cc1ccccc1)N(C)C (configuration not stated)	-6.34*	-0.26*
N/N=C(\c1ccccc1)c1cc(Br)ccc1N	i	-1.1
CCC(=O)c1ccc(OCC(=O)NC2(C#N)CCCCC2)cc1	i	-0.28

Some of the compounds tested, so the mix of outcomes need not match the whole.
